# StopGo FLuc – FMDV 2A StopGo reporter, firefly signal; HEK cells with a luciferase reporter of 2A StopGo recoding; Potency, µM (titrated, usually from 57.5 µM), without a hit: at the highest dose signal change, negative = less light; 120,000 compounds, 0.23% hits; active = well fitted falling curve with a large enough effect; inconclusive = small, poorly fitted or top-dose-only effect; inactive = no such curve, though single readings can be large or run the other way; also: nearly all actives have a fitted effect of over 60% in size; overnight with compound
# StopGo RLuc – lowers the Renilla signal of an FMDV 2A StopGo reporter; AID 1745857; 120,000 compounds, 0.32% hits; Potency, µM (titrated, usually from 57.5 µM), without a hit: at the highest dose signal change, negative = less light; HEK cells with a luciferase reporter of 2A StopGo recoding; active means well fitted falling curve with a large enough effect; inconclusive means small, poorly fitted or top-dose-only effect; inactive means no such curve, though single readings can be large or run the other way; also: nearly all actives have a fitted effect of over 55% in size; overnight with compound
# An asterisk follows results filed as active; ? = inconclusive; [ ] = remark or other dose. % is scaled to controls: 0 for no effect and ±100 for the full control effect; potency is read from the fitted curve at half-maximal effect. The list is partial; rates above refer to the full screens.
SMILES,StopGo FLuc,StopGo RLuc
COc1ccccc1NC(=O)CSc1oc(-c2ccccc2)nc1S(=O)(=O)c1ccc(C)cc1,-19%,34%[activator]
Cc1ccc2nc(SCC(=O)N3CCN(S(=O)(=O)c4ccccc4)C3)[nH]c2c1,4%,38%[activator]
COc1cc2cc(CNc3ccccc3)c(=O)n(CC(=O)Nc3cccc(Cl)c3C)c2cc1OC,109%[activator],-10%
CC(C)c1cc(C(=O)Nc2cccc(Cl)c2)nn1C1CCS(=O)(=O)C1 (stereo not given),54%[activator],32%
CC(C)(C)c1cc(NC(=O)Nc2ccc(F)cc2)no1,144%[activator],-15%
Cc1ccc(NC(NC(=O)c2ccc(Br)cc2)C(Cl)(Cl)Cl)cc1 (stereo not given),?,?
Cc1ccsc1C(=CCCN1CCC[C@@H](C(=O)O)C1)c1sccc1C,-18%[11.5 µM],-10%
COc1ccccc1N(CC(=O)Nc1cc(C)cc(C)c1)S(C)(=O)=O,-2%,0%
Cn1c(=O)c2c(SCC(=O)NCc3ccco3)nc(-c3ccccc3Cl)nc2n(C)c1=O,-9%,4%
N#Cc1cc(N)cc(I)c1,5%,14%
O=C(CSc1ncnc2ccccc12)Nc1cc(F)ccc1F,5%,-11%
O=C1CCCC2=C1C(c1cccnc1)CC(=O)N2c1ccccc1C(F)(F)F (stereo not given),-3%,7%
COc1ccc2c(c1)CCCN2C(=O)COc1ccc2ccc(=O)oc2c1,-4%,-10%
O=C(CSc1nc2c(c(=O)n1-c1ccc(Br)cc1)SCC2)N1CCCCCC1,20%,26%
CNC(=S)NCc1ccc(C(=O)OC)cc1,-5%,2%
CCc1ccccc1NC(=O)c1cnn2c1NC(C(=O)O)=CC2c1ccccc1OC (stereo not given),?,-9%
Cc1cccc(C(=O)NC2(C(F)(F)F)N=C(c3ccccc3)N(Cc3ccccc3)C2=O)c1 (stereo not given),-21%,25%
CCc1ccccc1NC(=O)Cc1ccc(-n2c(C)nc3cccnc32)cc1,-13%,-10%
O=C(Nc1ccc2c(c1)OCCO2)C(=O)c1c[nH]c2ccc(Br)cc12,201%[activator],1%
CCC(=O)NC(Nc1ccccc1Cl)(C(F)(F)F)C(F)(F)F,7%,0%
CCCCOC(=O)c1ccc(NC(=O)c2cc(=O)c3cc(C)c(C)cc3o2)cc1,0%,37%[activator]
Nc1c(C(=O)Nc2cccc(F)c2)sc2nc(-c3cccs3)ccc12,242%[activator],14%
Cc1cc(C)cc(NC(=O)c2cnn3c2NC(C(=O)O)=CC3/C=C/c2ccccc2)c1 (stereo not given),15%,5%
CCOc1ccc(C(C)NC(=O)Cc2ccccc2C)cc1 (stereo not given),0%,21%
Cc1cc(C)cc(C(=O)n2nc(C)c(S(=O)(=O)N3CCOCC3)c2C)c1,-22%,-9%

# In a second layout: results already given.
Compound | StopGo FLuc | StopGo RLuc
CCCCOC(=O)c1ccc(NC(=O)c2cc(=O)c3cc(C)c(C)cc3o2)cc1 | 0% | 37%[activator]
Nc1c(C(=O)Nc2cccc(F)c2)sc2nc(-c3cccs3)ccc12 | 242%[activator] | 14%
Cc1cc(C)cc(NC(=O)c2cnn3c2NC(C(=O)O)=CC3/C=C/c2ccccc2)c1 (stereo not given) | 15% | 5%

# The listing picks up, starting four compounds before the break.
SMILES,StopGo FLuc,StopGo RLuc
Nc1c(C(=O)Nc2cccc(F)c2)sc2nc(-c3cccs3)ccc12,242%[activator],14%
Cc1cc(C)cc(NC(=O)c2cnn3c2NC(C(=O)O)=CC3/C=C/c2ccccc2)c1 (stereo not given),15%,5%
CCOc1ccc(C(C)NC(=O)Cc2ccccc2C)cc1 (stereo not given),0%,21%
Cc1cc(C)cc(C(=O)n2nc(C)c(S(=O)(=O)N3CCOCC3)c2C)c1,-22%,-9%
COc1ccc(C(F)(F)F)cc1NC(=O)c1sc2nc(-c3cccs3)ccc2c1N,22%,-2%
CCC(=O)N1CCc2cc(S(=O)(=O)CCC(=O)N3CCN(c4cccc(Cl)c4)CC3)ccc21,-14%,-8%
O=C(OCc1cc(=O)n2c3c(sc2n1)CCCC3)c1cccc(NC(=O)c2ccccc2F)c1,-14%,1%
CCN1CCOC(=O)C1CC(=O)Nc1cc(C)cc(C)c1 (stereo not given),-29%,-27%
O=C(Nc1cccc(F)c1)c1cnc2ccccc2n1,196%[activator],10%
COc1cc(OC)c2c(C)c(CC(=O)NCCN3CCOCC3)c(=O)oc2c1,-10%,-5%
CCOC(=O)C1=C(CS(=O)(=O)c2ccc(F)c(C)c2)NC(=O)NC1c1ccccc1OC (stereo not given),-13%,-11%
Cc1ccc(Nc2n[nH]nc2C(=O)Nc2ccc(C)cc2Cl)cc1,0%,-2%
CCN(CC)C(=O)Cn1c(=O)n(Cc2ccc(C(=O)NCCc3ccc(OC)c(OC)c3)cc2)c(=O)c2ccccc21,3%,-2%
CC(O)CNC(=O)C1CCN(Cc2nnnn2-c2ccccc2)CC1 (stereo not given),0%,9%
c1ccc(-c2nc(N3CCCCC3)c3ccccc3n2)nc1,?,?
CCN(CC)C(=O)C(Sc1nnnn1-c1c(C)cccc1C)c1ccccc1 (stereo not given),1%,32%[activator]
COc1ccc(-n2c(C)nnc2SCc2nc(-c3ccccc3C)no2)cc1,21%,15%
Cc1ccc(SCCC(=O)OC(C)C(=O)Nc2ccccc2)cc1 (stereo not given),0%,-4%
COc1ccc(NC(=O)c2nc(-c3ccccc3)n(-c3ccc(F)cc3)n2)c(OC)c1,-15%,12%
CCCN1C(=O)c2[nH]nc(-c3ccccc3O)c2C1c1cccc(OCc2ccccc2)c1 (stereo not given),20%,28%
C=CCNC(=O)NC(=O)CN1CCC(C(=O)N(C)C(C)C)CC1,4%,7%
Cc1ccccc1C(CC(=O)Nc1ccc(-c2ccno2)cc1)n1cccc1 (stereo not given),-1%,180%[activator]
O=C(CSc1ccc2c(c1)OCCCO2)NC(c1ccccc1)c1ccccc1,-36%,-21%
COc1ccc(OC)c(NC(=O)c2ccc(-c3nc(CSc4ccccc4)c(C)o3)cc2)c1,-5%,3%
O=C(COc1ccccc1Cl)Nc1ccccc1-c1nc(-c2ccncc2)no1,13%,0%
Cc1cc(C)cc(-n2c(SCC(=O)Nc3ccc4c(c3)OCCO4)nc3c([nH]c4ccccc43)c2=O)c1,-16%,-11%
COc1cc(C2C(C#N)=C(N)N(c3c(F)cccc3F)C3=C2C(=O)CC(C)(C)C3)ccc1O (stereo not given),-7%,-5%
COc1cc(/C=C/C(=O)c2cccs2)ccc1O,128%[activator],18%
CCCS(=O)(=O)c1nc(S(=O)(=O)c2ccc(C)cc2)c(N(CC)CC)s1,11%,132%[activator]
# Next records
SMILES,StopGo FLuc,StopGo RLuc
O=c1oc2ccc(Br)cc2cc1S(=O)(=O)N1CCCC1,-10%,-15%
Cc1cc(NC(=O)CN2CCN(C(=O)c3ccc(C)c(F)c3)CC2)no1,5%,26%
COc1ccc(OC)c(NC(=O)NC(c2ccccc2)c2nnc(-c3ccccc3)o2)c1 (stereo not given),15%,19%
COc1ccc(NC(=O)C2CCN(S(=O)(=O)c3ccc4c(c3)CCCC(=O)N4)CC2)cc1Cl,4%,6%
O=S(=O)(NC(c1ccc(F)cc1)c1cccs1)c1cccs1 (stereo not given),-7%,51%[activator]
CC(Oc1ccc(C(N)=O)cc1)C(N)=O (stereo not given),8%,-8%
Cc1ncsc1C(=O)NCc1ccc(N2CCCC2)nc1,?,?
COc1cccc(CNC(=O)c2nnn(CC(=O)Nc3cc(Cl)ccc3C)c2N)c1,-3%,2%
CC(C)(C)C(=O)C(Oc1ccc(Cl)cc1)n1ccnc1 (stereo not given),19%[11.5 µM],23%
CCc1ccccc1NC(=O)CSc1ncc(S(=O)(=O)c2ccc(C(C)C)cc2)c(N)n1,-19%,3%
CCc1ccc(NC(=O)c2ccc(F)c(S(=O)(=O)N3CCC(C)CC3)c2)cc1,-8%,6%
OCc1ccccc1CN1CCCC1,-1%,-3%
O=c1c(-c2ccccc2)nnc2sc(-c3ccccc3)nn12,44%[activator],0%
Cc1ccc(C)c(-c2nn(CC(=O)Nc3ccccc3F)c(=O)c3c2CCCC3)c1,34%[activator],33%[activator]
CCOC(=O)c1ccccc1NC(=O)Cn1ccn2nc(-c3ccc(OCC)cc3)cc2c1=O,22%,-13%
Cc1ccccc1NS(=O)(=O)c1ccc2c(c1)NC(=O)CCS2,37%[activator],100%[activator]
CC(C)(C)C(=O)Nc1ccc2nc(SCC(=O)N3CCc4ccccc43)sc2c1,29%,-9%
CN(C)C(=O)CN1CCN(c2nc(-c3ccccc3)nc3ccccc23)CC1,14%,20%
O=C(NCc1ccccc1Cl)C(=O)NCC(c1cccs1)S(=O)(=O)c1cccs1 (stereo not given),-2%,-13%
CCCNC(=O)CSc1ncc(-c2ccc(Br)cc2)o1,47%[activator],-4%
COc1ccccc1NC(=O)Cn1c(=O)n(Cc2ccccc2)c(=O)c2c3c(sc21)CN(C(C)=O)CC3,4%,-7%
CCOc1ccc2oc(=O)c(-c3ccccc3)c(C)c2c1,89%[activator],38%[activator]
CCOC(=O)C1CCN(C(c2cccc(F)c2)c2c(O)cc(C)n(Cc3ccco3)c2=O)CC1 (stereo not given),-8%,9%
O=C(CSc1nc2ccccc2o1)OCC(=O)c1ccc(F)cc1,5%,-1%
COc1ccc(-n2nnnc2C(C)(C)N2CCOCC2)cc1,9%,3%
# (next part)
SMILES,StopGo FLuc,StopGo RLuc
Cc1ccc(NC(=O)c2cnc(N3CCCCC3)c3ccccc23)cc1,11%,3%
COc1cc(NC(=O)c2ccc3oc(=O)c(S(=O)(=O)c4ccccc4)cc3c2)cc(OC)c1,-17%,-17%
CCc1cccc2c(C(=O)C(=O)Nc3ccc4c(c3)OCCO4)c[nH]c12,144%[activator],2%
CCOc1ccc(C(=O)NCC(c2ccc3c(c2)OCO3)N2CCN(c3ccccc3F)CC2)cc1 (stereo not given),-6%,57%[activator]
c1csc(C(Nc2ccc3nnnn3n2)c2ccc3c(c2)CCC3)c1 (stereo not given),12%,107%[activator]
Nc1nccnc1C(=O)NCc1ccccc1,22%,10%
CC(C)CNC(=O)C(=O)Nc1c2c(nn1-c1ccccc1)CS(=O)(=O)C2,4%,-11%
CC(C)(C)c1ccc(C(CC(=O)O)NC(=O)C2CCCCC2)cc1 (stereo not given),7%,-1%
Cc1ccc(S(=O)(=O)Nc2cc3c(cc2SC2CCCCC2)n(C)c(=O)n3C)cc1,17%,50%[activator]
CCC(C)(C(=O)NC1CCCCC1)N(Cc1cccs1)C(C)=O (stereo not given),2%,-4%
COCCCn1c(SCC(=O)Nc2ccccc2OC)nc2c(sc3ccccc32)c1=O,18%,16%
CCC(CC)NC(=O)COC(=O)Cc1nn(C)c(=O)c2ccccc12,-13%,?
CC(C)CCNc1nc(C(=O)OC(C)C(=O)NC(=O)NC2CC2)cs1 (stereo not given),1%,-7%
O=C(CSc1n[nH]c(-c2cccc(Br)c2)n1)c1ccc(Cl)cc1,7%,-10%
COc1ccc(OCC(=O)NCC(c2ccc(OC)cc2)N2CCCCC2)cc1 (stereo not given),-15%,-8%
CC(C)(C)c1cc(CN(CCO)Cc2cc(C(C)(C)C)c(O)c(C(C)(C)C)c2)cc(C(C)(C)C)c1O,8%,11%
O=C(NCCc1ccc(OC(F)F)cc1)c1nn(Cc2ccccc2)c(=O)c2ccccc12,14%,49%[activator]
CC(=O)NNC(=S)NC1CCCC1,1%,-9%[1.06 µM]
COc1ccc(NC(=O)c2c(NC(=O)c3cccc(C)c3)sc3c2CCC3)cc1,0%,-6%
Clc1ccc(-c2onc3ccc(C4OCCO4)cc23)cc1,77%[activator],22%
CCC(Nc1ccc(-c2nc(-c3cccnc3)no2)cc1[N+](=O)[O-])c1ccccc1 (stereo not given),24%,-11%
CCOC(=O)COc1ccc2c(C)c(-c3ccc(OC)c(OC)c3)c(=O)oc2c1,18%,5%
CCOc1ccc(Oc2nc(NCC(C)C)nc(N3CCOCC3)n2)nn1,0%,7%
Cn1c(=O)c2c(nc(Nc3ccc(Cl)cc3Cl)n2CC(=O)O)n(C)c1=O,-3%,-9%
O=C(Nc1c(F)cc(F)cc1Br)c1cc2ccccc2oc1=O,57%[activator],-11%

# 2 of these compounds in a different format:
Structure: Cc1ccc(S(=O)(=O)Nc2cc3c(cc2SC2CCCCC2)n(C)c(=O)n3C)cc1
  StopGo FLuc: 17%	StopGo RLuc: 50%[activator]
Structure: CCC(C)(C(=O)NC1CCCCC1)N(Cc1cccs1)C(C)=O (stereo not given)
  StopGo FLuc: 2%	StopGo RLuc: -4%

# (cont.)
SMILES,StopGo FLuc,StopGo RLuc
CN1C(=O)c2ccccc2Sc2ccc(NC(=O)c3ccc(C(F)(F)F)cc3)cc21,-11%,-1%
COc1ccc(S(=O)(=O)Oc2ccc3oc(=O)cc(-c4cc5cccc(OC)c5o4)c3c2)cc1,22%,24%
Cc1cnc2c(S(=O)(=O)N3CCCCC3C(N)=O)cccc2c1 (stereo not given),8%,15%
CCC(CC)C(=O)Nc1sc2c(c1C#N)CCC(C(C)(C)CC)C2 (stereo not given),26%,-6%
Cc1ccc(C)c(N2CCN(c3c(CN4CCCC4)c(=O)oc4ccccc34)CC2)c1,106%[activator],-9%
CN1CC2(Cc3c1ccc1ccccc31)C(=O)NC(=O)N(C(C)(C)C)C2=O (stereo not given),-6%,-8%
O=S(=O)(Cc1coc(-c2ccc(Cl)cc2)n1)CC1CCCO1 (stereo not given),122%[activator],5%
CCOC(=O)c1ccc(NC(=O)c2sc3nc4c(cc3c2N)N2CCC4CC2)cc1,0%,-20%
Cc1cnc(C(=O)N(C)Cc2ccc(Br)o2)cn1,-16%,-15%
COc1ccccc1-c1noc(CCCC(=O)Nc2cccc(C(F)(F)F)c2)n1,-1%,23%
